Compound activity (PubChem)
RanGTP-Imp inh = inhibitors of RanGTP-importin-beta interaction, primary screen, biochemical, FRET, CFP-Ran, YFP-importin-beta, homogeneous. Ran GTPase (GTP-bound) - importin-beta complex. cell-free CFP-Ran/YFP-importin-beta FRET ratio. inhibition, % (no concentration beside the values). actives 1.1% (n = 300,000);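 active = most replicates above 15%; inconclusive = exactly half above 15%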;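 also: 0% = DMSO wells and 100% = Ran loaded with GDP instead of GTP; wells of about 40 µL received 100 nL stock; the first replicate is given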
HNF4A DNA FP = change in binding of human HNF4A to DNA, primary screen, biochemical, fluorescence polarization, FITC-DNA | activity change, % at 10 µM | actives 0.3% (n = 360,000) | 1 h | Hepatocyte nuclear factor 4-alpha (Homo sapiens), P41235 | AID 1224865, 2016; in the data active = activity change above about 30%, passing the limit was not always enough;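 also: controls were the assay level and a saturating level of protein; the project sought stronger binding though the title names inhibitors; some compounds called inactive have numbers as strong as hits; positive values seem to mean higher polarization but the record does not say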
Vif A3G = inhibitors of Vif binding to APOBEC3G peptide, primary screen, biochemical, TR-FRET, GST-Vif 1-94, biotin-A3G peptide, dose response retest (AID 1117319); Virion infectivity factor (Human immunodeficiency virus type 1 group M subtype B (isolate …; TR-FRET GST-Vif / biotin-A3G peptide binding; higher % means a stronger effect; test concentration not given here; strong numbers were not always called active; inhibition, %, or IC50 in µM where a hit was titrated; actives 0.57% (n = 260,000);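 active = above the screen mean plus three standard deviations and confirmed in dose response; inconclusive = results disagree or hit not tested in dose response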;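 also: Vif residues 1-94 fused to GST binding biotinylated APOBEC3G peptide 110-148; 0% = full assay without inhibitor and 100% = GST in place of GST-Vif; retest series ran down from 100 µM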
MLL AF4-AF9 inh = inhibitors of AF4 peptide binding to AF9, primary screen, biochemical, AlphaScreen, biotin-AF4 peptide, FLAG-AF9, single point | Protein AF-9 (Homo sapiens), P42568 | inhibition, % at 10 µM | actives 0.47% (n = 350,000) | AID 651704, 2012;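 active = every replicate reaching a set inhibition limit, whatever the replicate mean, cut at about 25% in these data; inconclusive = mean inhibition reaches that limit but some replicates miss it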;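 also: 0% = plate neutral control median and 100% = total signal loss; the record names both 10 and 1 µM as test concentration; the first replicate is given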
Target sequence (P42568 whole entry, looked up): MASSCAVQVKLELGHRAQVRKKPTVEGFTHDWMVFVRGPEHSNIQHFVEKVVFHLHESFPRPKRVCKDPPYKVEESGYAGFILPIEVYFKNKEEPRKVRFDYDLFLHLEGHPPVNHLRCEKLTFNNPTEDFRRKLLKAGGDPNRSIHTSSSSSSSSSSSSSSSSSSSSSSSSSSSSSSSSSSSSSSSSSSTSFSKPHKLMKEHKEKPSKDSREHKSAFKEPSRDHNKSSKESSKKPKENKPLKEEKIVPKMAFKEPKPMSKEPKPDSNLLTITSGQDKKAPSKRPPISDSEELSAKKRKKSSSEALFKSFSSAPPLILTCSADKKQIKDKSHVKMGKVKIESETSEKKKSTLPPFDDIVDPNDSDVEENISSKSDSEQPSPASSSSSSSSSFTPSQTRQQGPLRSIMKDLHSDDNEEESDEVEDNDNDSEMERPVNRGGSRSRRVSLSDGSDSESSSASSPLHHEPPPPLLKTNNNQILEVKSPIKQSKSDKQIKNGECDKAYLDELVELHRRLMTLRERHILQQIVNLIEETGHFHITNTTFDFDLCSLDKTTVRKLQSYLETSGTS
FGF22 binding = binders of human FGF22 protein, primary screen, FGF22 synaptogenesis inhibitor project, biophysical, thermal shift, single point | actives 1.5% (n = 340,000) | recombinant FGF22 thermal shift, SYPRO orange fluorescence; percent of sucrose octasulfate shift, DMSO zero | calls only at 9.99 µM;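 active = melting point raised past a set limit in the mean and every replicate; inconclusive = no clear call; three in four hits are not shown here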
Target sequence (Q9HCT0 whole entry, looked up): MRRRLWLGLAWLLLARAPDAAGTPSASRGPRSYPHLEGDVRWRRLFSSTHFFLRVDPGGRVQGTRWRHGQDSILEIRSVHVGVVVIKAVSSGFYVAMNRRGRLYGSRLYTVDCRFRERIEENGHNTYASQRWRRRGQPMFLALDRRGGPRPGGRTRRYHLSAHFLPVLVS
UCH37 DUB inh = inhibitors of human UCH37 deubiquitinase, primary screen, biochemical, Ub-AMC cleavage, fluorescence; Ubiquitin carboxyl-terminal hydrolase isozyme L5 (Homo sapiens), Q9Y5K5; purified proteasome/UCH37; inhibition, % (concentration not given with the values); actives 0.33% (n = 330,000); AID 588478, 2011;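 active = mean of two replicates above 20%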;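 also: 0% = compound-free wells with enzyme and 100% = wells lacking proteasome; stock transfer was 100 nL into about 20 µL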
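Reagent: Ub-AMC substrate; assay system: Proteasome-associated human UCH37 deubiquitinase; controls: no-proteasome and no-compound wells; read-out: % inhibition of Ub-AMC cleavage fluorescence; timing: 30 min preincubation with enzyme, 25 min cleavage at room temperature; signal: AMC fluorescence from Ub-AMC cleavage, excitation 355 nm, emission 460 nm; buffer or medium: Tris-HCl pH 7.4 plus ovalbumin, ATP-MgCl2, DTT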
Ecoli growth = E. coli growth inhibition, primary screen, OD600; actives 0.21% (n = 330,000); Escherichia coli growth, 23 h; stronger effect = lower value; OD600 absorbance (no concentration beside the values);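 active = OD600 absorbance below the run mean of sample wells minus 3.6 SD, in any replicate, cut at about 0.56 in these data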;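 also: stock transfer was 300 nL into about 60 µL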
Starred values were filed as active, the others as inactive; i = inactive; ? = inconclusive; nt = no result given.

No.	Compound	UCH37 DUB inh	FGF22 binding	HNF4A DNA FP	Vif A3G	MLL AF4-AF9 inh	RanGTP-Imp inh	Ecoli growth
1	CN=C1S/C(=C\c2cc(C)n(-c3ccccc3F)c2C)C(=O)N1C	4.0	nt	-0.7	8%	nt	8.5	0.7
2	Cc1nnc(SCC(=O)NC2CCCCC2C)s1 (stereo not drawn)	1.2	i	5.2	nt	-1.1	-0.4	0.72
3	O=C(CCCC(=O)Nc1ccc(Br)cc1)N/N=C/c1ccccc1	nt	i	0.9	nt	-7.1	-3.8	nt
4	CCc1nc2ccc(C(=O)NCCc3ccccn3)cn2c1N(C)Cc1nccs1	nt	i	-1.2	nt	-0.4	nt	nt
5	CCOC(=O)C1CCN(C(=S)NC2CCCC2)CC1	2.9	i	-2.7	18%	4.2	4.5	0.72
6	CC1=CC2(C)NC(=O)C(C)C12 (stereo not drawn)	nt	i	4.6	-1%	-1.7	nt	nt
7	CCCCNc1c(-c2ccc(-c3ccc(C(C)=O)cc3)c(OC)c2)nc2cc(C)ccn12	-13	i	-2.2	nt	8.0	nt	0.74
8	CCn1c(-c2ccc(F)cc2)cnc1SCC(=O)N1CCc2ccccc21	-2.7	nt	nt	-3%	nt	?	0.69
9	CC1Cc2nc(SCC(=O)NCC3CCCO3)n(C)c(=O)c2S1 (stereo not drawn)	7.4	i	2.6	0%	-2.6	?	0.65
10	CN(C)c1ccc(NC(=S)NC(=O)/C=C/c2ccco2)cc1	5.7	i	-0.6	-7%	0.2	-0.9	nt
11	CCOC(=O)C1CCN(C(=O)c2cc3cc4cc(OC)ccc4nc3o2)CC1	-115	nt	-0.9	-2%	nt	1.0	0.71
12	Cc1nc2cc(NC(=O)Nc3cccc(F)c3)ccc2n1C	0.4	i	0.3	2%	2.3	-1.5	0.66
13	COc1ccccc1Nc1ccc(NS(=O)(=O)c2ccc(C(C)=O)cc2)cc1	1.6	i	-0.1	nt	-0.1	-2.6	0.61
14	COc1cccc(N2CCN(C(=O)Nc3ccc4c(c3)NC(=O)CO4)CC2)c1	2.2	nt	0.9	2%	nt	-1.3	0.67
15	COC(=O)c1cc(C(=O)NC(C)(C)CC(C)(C)C)cc([N+](=O)[O-])c1	-1.4	i	1.4	nt	3.4	2.2	0.66

More results follow:
No.	Compound	UCH37 DUB inh	FGF22 binding	HNF4A DNA FP	Vif A3G	MLL AF4-AF9 inh	RanGTP-Imp inh	Ecoli growth
16	COCCNC(=O)CCc1c(C)nc2c(-c3ccc(F)cc3)c(C)nn2c1C	4.2	i	1.6	-5%	6.5	-1.0	0.71
17	O=C(c1ccc(Cl)c(S(=O)(=O)N2CCOCC2)c1)N1CCN(c2ccccn2)CC1	-1.1	i	0.4	-8%	0.6	nt	0.64
18	CCOc1ccc(NC(=O)CN(C)C(=O)CCCNC(=O)c2ccc(Cl)cc2)cc1OCC	nt	i	0.5	nt	-3.3	nt	nt
19	Cc1ccc[n+](CC(=O)Nc2c(Cl)cc(Cl)cc2Cl)c1	0.6	i	3.6	6%	-2.7	-1.0	0.69
20	O=C1OCCC1Sc1nnc(-c2cccs2)n1Cc1ccccc1 (stereo not drawn)	5.1	i	2.5	4%	-1.6	0.3	0.74
21	CCCn1c(N)c(N(CCOC)C(=O)c2cc3c(s2)CCC(CC)C3)c(=O)[nH]c1=O (stereo not drawn)	3.4	i	-2.4	nt	1.7	nt	0.71
22	Cc1ccc2nc(-c3ccccc3)cc(C(=O)N3CC(C)OC(C)C3)c2c1 (stereo not drawn)	-1.3	i	3.7	5%	-3.7	3.8	0.68
23	Cc1ccc(C(=O)c2ccccc2C(=O)OCC(=O)NC(=O)NC(C)(C)C)cc1	0.7	i	-0.8	6%	1.2	-3.1	0.71
24	Cc1ccnc(NC(=O)c2cc(F)c(F)cc2Cl)n1	4.7	i	2.9	nt	0.1	1.7	0.68
25	CCOc1cc(Br)cc(/C=C2\SC(=Nc3ccccc3)NC2=O)c1O	5.0	i	2.9	-1%	-2.2	2.3	0.63
26	Cn1c(=O)c2c(nc(NCCCO)n2CCc2ccccc2)n(C)c1=O	3.5	nt	0.6	20%	nt	7.7	0.75
27	Cc1ccc(C(=O)N/C(=C/c2ccccc2F)C(=O)NCCCn2ccnc2)cc1	5.3	i	-3.9	nt	-16	4.6	0.67
28	CCOC(=O)Cn1cc(C(=O)c2ccco2)c2ccccc21	11	nt	-1.3	-4%	nt	0.1	0.68
29	Cc1nc(-c2ccc(Cl)cc2)sc1C1(C)CC(c2ccc(F)cc2)=NO1 (stereo not drawn)	2.0	i	0.2	nt	2.5	3.8	0.64
30	O=C(O)CC(CC(=O)NCC(O)c1ccccc1)c1ccccc1 (stereo not drawn)	0.0	i	-0.6	4%	0.6	2.6	0.67

Carrying on:
No.	Compound	UCH37 DUB inh	FGF22 binding	HNF4A DNA FP	Vif A3G	MLL AF4-AF9 inh	RanGTP-Imp inh	Ecoli growth
31	C=CCNc1nc(C)nc(OC)n1	1.3	nt	2.1	-3%	nt	-0.5	0.71
32	Clc1ccc(-c2ccn[nH]2)cc1	-0.5	nt	1.3	0%	-0.6	-1.5	0.68
33	O=C(N/N=C/c1cccnc1)c1cc(O)c(O)c(O)c1	nt	i	-4.0	22µM*	-0.3	?	nt
34	COc1ccc(N=C2NC(=O)C(CO)(CO)S2)cc1	4.3	i	2.9	nt	-1.5	-7.1	0.69
35	COc1ccc(OS(=O)(=O)c2ccc(N3C(=O)CCC3=O)cc2)cc1	nt	i	-1.4	nt	3.8	-5.6	nt
36	O=C(N=C1SC2CS(=O)(=O)CC2N1c1ccccc1)C1CCCCC1 (stereo not drawn)	1.4	i	2.8	nt	-7.6	0.6	0.72
37	CCOC(=O)COc1nc(-c2ccc(C)cc2)cc(-c2ccco2)c1C#N	-54	i	1.7	-6%	0.5	6.2	0.67
38	CC(C)c1nc2oc3c(N(C)CCO)ncnc3c2c2c1CCC2	-1.6	i	0.9	-7%	-2.0	4.2	0.66
39	N#CC[C@H](Cc1ccccc1)N1CC[C@@H](O)CCC1=O	2.3	i	0.0	nt	-1.2	-0.6	nt
40	CCc1ccc(C2CC(c3ccc(Cl)cc3)=NNC2=O)cc1 (stereo not drawn)	2.6	nt	4.8	-3%	nt	-4.0	0.71
41	COc1cccc(CNC(=O)COC(=O)c2cccc(S(=O)(=O)N3CCCC3)c2)c1	2.7	i	0.2	-9%	3.8	nt	0.7
42	O=C(NC1CCSc2ccccc21)c1cc([N+](=O)[O-])ccc1N1CCOCC1 (stereo not drawn)	10	i	-0.6	0%	3.8	-0.8	0.65
43	CCCCNc1cccc2c1S(=O)(=O)N(CCCC)CC(COCc1ccccc1)O2 (stereo not drawn)	nt	i	-2.4	2%	-1.3	nt	nt
44	CCOc1ccc(/C=N/NC(=O)C(C)Sc2ccccn2)cc1OCC (stereo not drawn)	nt	i	1.3	nt	-10	-3.3	nt
45	COc1ccc(/C=N/NC(=O)c2cc3c(ccc4ccccc43)o2)cc1OC	nt	i	0.7	nt	-0.3	nt	nt

Following part.
No.	Compound	UCH37 DUB inh	FGF22 binding	HNF4A DNA FP	Vif A3G	MLL AF4-AF9 inh	RanGTP-Imp inh	Ecoli growth
46	CC1CCCC(C)N1CCNC(=O)C1CCN(S(=O)(=O)N2CCCCC2)CC1 (stereo not drawn)	5.9	nt	-0.8	3%	nt	0.1	0.71
47	CCC(=O)NNc1cccc(Cl)n1	0.1	nt	-2.9	16%	nt	2.3	0.74
48	CCC(C)(C)n1nnnc1C(C(C)C)N1CCSCC1 (stereo not drawn)	4.8	i	0.6	4%	-1.5	1.2	0.69
49	CCCc1c(C(=O)N/N=C/c2ccc(C)o2)nnn1-c1nonc1N	nt	i	0.9	-9%	-4.4	nt	nt
50	CC(C)(C)NC(=O)C(c1ccc(O)cc1)N(Cc1ccc2c(c1)OCO2)C(=O)CCl (stereo not drawn)	nt	i	-3.0	-2%	-3.3	nt	nt
51	Cc1cccc(N2C(=O)/C(=C/c3ccccn3)SC2=S)c1	4.7	i	-0.8	nt	-2.0	1.9	0.66
52	Cc1cccc(N2C(=O)CSC2c2cccnc2)c1 (stereo not drawn)	0.7	nt	2.7	2%	nt	-1.3	0.65
53	Cc1ccc(NC(=O)CN(C)C(=O)COc2cccc3ccc(C)nc23)cc1	2.4	i	-1.1	nt	-4.8	nt	0.7
54	CC(C)CN1CCC(=O)N([C@H](CSc2ccc(Br)cc2)c2ccccc2)CC1	-2.5	i	-0.8	nt	2.0	-1.0	nt
55	Cc1nc(C(C)(C)O)n(-c2ccccc2)n1	3.8	nt	0.0	10%	nt	2.6	0.73
56	O=S(=O)(NCCS(=O)(=O)N1CCN(c2ccc(F)cc2)CC1)c1ccc(F)cc1	nt	i	11	-4%	-1.9	nt	nt
57	COc1ccc(C(C)=O)cc1COC(=O)c1ccc(N)c([N+](=O)[O-])c1	4.1	i	0.5	4%	-2.3	-1.6	0.71
58	CC1CCN(C(=O)CSc2nc3c(c(=O)n2C)SC(C)C3)CC1 (stereo not drawn)	5.0	i	-1.9	nt	-0.3	8.4	0.73
59	Cc1ccc(C(C)C)c(OCC(=O)NC(=S)Nc2ccccc2N2CCOCC2)c1	5.4	i	1.1	nt	1.3	nt	0.68
60	Cc1ccc(C2C(C(=O)c3cccs3)=C(O)C(=O)N2CCN2CCOCC2)o1 (stereo not drawn)	5.6	nt	1.9	17%	nt	-0.2	0.71

(list continues)
No.	Compound	UCH37 DUB inh	FGF22 binding	HNF4A DNA FP	Vif A3G	MLL AF4-AF9 inh	RanGTP-Imp inh	Ecoli growth
61	C=C(C)C(=O)Nc1cccc(C2=NOC3(C2)C[C@H](C(N)=O)N(C(=O)C(c2ccccc2)c2ccccc2)C3)c1 (stereo partly drawn)	3.6	nt	-42	2.4µM*	nt	nt	nt
62	C#CCOCCOCCOCCNc1nc(N2CCN(C(=O)[C@H](CCCCN)n3cc(CN)nn3)CC2)nc(N2CCN(C(=O)[C@H](CCC(=O)O)n3cc(CN)nn3)CC2)n1	0.1	i	4.7	-11%	9.6	nt	0.71
63	CC(C)(C)C(=O)/C(C#N)=C/c1cccs1	5.2	i	0.2	-4%	4.3	0.4	0.63
64	CSc1ncccc1C(=O)OCC(=O)NC12CC3CC(CC(C3)C1)C2	0.9	i	-1.1	-2%	1.3	nt	0.7
65	COc1cc2c(cc1OC)CN(C(=O)COc1ccc(C)c(C)c1)CC2	2.2	nt	0.7	2%	nt	-0.2	0.73
66	O[C@H]1C[C@H](c2ccc(Cl)cc2)N(Cc2cccs2)C[C@@H]1n1cc(-c2ccc(F)cc2)nn1	nt	i	-4.4	-8%	1.5	nt	nt

Not all compounds are listed; count on the stated rates, not on these rows.
